GALR2 agonist: activates the human galanin receptor 2 | O43603 | GALR2-expressing cells, agonist activation read-out | activation, %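 (tested at 5 µM)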 | actives 0.48% (n = 140,000) | AID 803;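 active means above mean plus 3 SD of all compounds, about 5% in these data, not always enough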;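 further: 0% = vehicle buffer wells and 100% = reference agonist at full effect; tested in CHO reporter cells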
HSV replic up: increases HSV replication in cells | HSV replication augmentation in cells, fold increase | maximum fold increase | actives 0.005% (n = 220,000) | AID 1956;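 active means peak rise of 1.5-fold or more in the series; inconclusive means self-fluorescent or not available for retest; tested in PC3 cells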;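 further: first round at 10 µM; read as green reporter fluorescence; hits show the peak of a series up to 25 µM; 1 = signal of infected wells without compound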
INS promoter inh: TRM-6 insulin promoter activity inhibition; TRM-6 cells (human fetal islet line), insulin promoter-eGFP reporter, imaging; reporter expression induced with tamoxifen; inhibition, % at 2 µM; actives 0.9% (n = 130,000); AID 1273;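 active means inhibition above the mean plus 3 SD, with well images judged a real hit on visual review, cut at about 60% in these data, passing the limit was not always enough; inconclusive means inhibition over the cutoff but images rejected on review; inactive means inhibition not above the cutoff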
PKD1 inh: blocks activity of human protein kinase D1 | AID 797 | actives 0.056% (n = 200,000) | inhibition, %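 (about 10 µM by stock and volumes)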 | PKD1 kinase fluorescence polarization assay;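 active means inhibition of 50% or more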;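 further: controls were vehicle for no effect and a reference inhibitor for full effect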
Target sequence (Q15139 whole entry, looked up): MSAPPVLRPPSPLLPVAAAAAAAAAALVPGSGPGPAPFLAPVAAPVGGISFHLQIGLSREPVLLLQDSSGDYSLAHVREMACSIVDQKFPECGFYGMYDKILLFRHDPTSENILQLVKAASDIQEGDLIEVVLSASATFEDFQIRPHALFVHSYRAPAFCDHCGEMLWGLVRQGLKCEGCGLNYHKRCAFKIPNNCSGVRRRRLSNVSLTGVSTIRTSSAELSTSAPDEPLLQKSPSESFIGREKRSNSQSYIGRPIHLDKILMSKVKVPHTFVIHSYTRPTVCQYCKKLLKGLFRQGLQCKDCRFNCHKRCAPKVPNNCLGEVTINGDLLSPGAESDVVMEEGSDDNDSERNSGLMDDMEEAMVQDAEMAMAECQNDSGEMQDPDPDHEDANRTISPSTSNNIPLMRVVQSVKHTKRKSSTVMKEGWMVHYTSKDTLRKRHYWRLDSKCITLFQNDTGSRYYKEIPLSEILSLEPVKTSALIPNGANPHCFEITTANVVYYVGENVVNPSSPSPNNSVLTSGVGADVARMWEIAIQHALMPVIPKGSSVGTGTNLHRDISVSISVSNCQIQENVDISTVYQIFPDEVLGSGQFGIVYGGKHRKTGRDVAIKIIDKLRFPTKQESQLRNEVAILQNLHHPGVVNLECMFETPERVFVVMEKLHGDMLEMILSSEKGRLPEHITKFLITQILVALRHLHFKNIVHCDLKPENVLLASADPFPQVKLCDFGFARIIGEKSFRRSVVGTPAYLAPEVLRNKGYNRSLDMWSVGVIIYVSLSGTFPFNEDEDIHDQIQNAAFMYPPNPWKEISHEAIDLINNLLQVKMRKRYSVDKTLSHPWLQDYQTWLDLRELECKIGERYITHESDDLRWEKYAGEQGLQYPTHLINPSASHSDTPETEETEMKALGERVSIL
RGS16-Gao: RGS16-Galphao interaction regulator (human) | O15492+P09471 | bead-based flow cytometry RGS16-Galphao binding, fluorescence; actives lie on both sides | binding response (% of control), % at 10 µM | actives 0.38% (n = 220,000);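 active means below 25% or above 175%, edge rows of some plates excepted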;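 further: Galphao activated by GDP with aluminum fluoride before binding; 100% = wells without compound and 0% = beads without RGS; some results beyond the cut were filed as inactive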
INS promoter inh cell count: recorded beside INS promoter inh, whose call it bears; normalized cell count, %; measured here: cell count, toxicity; reference of the scale not given here;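 cells exposed to compound for 48 h; stained nuclei by imaging scaled within each plate; lower means fewer cells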
HSV replic up primary fold: recorded beside HSV replic up, whose call it bears; fold increase; compound at 10 µM; measured here: primary screen fold increase 10 uM; tested in PC3 cells;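 GFP signal in the first replicate; 1 = infected wells without compound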
* marks the source's active call; other numbers are inactive results.

`CSc1cccc(NC(=O)/C=C/c2ccc(Cl)cc2)c1` gave GALR2 agonist -1.3, HSV replic up inactive, INS promoter inh -36, PKD1 inh -2, RGS16-Gao 120, INS promoter inh cell count 133 and HSV replic up primary fold 0.93.
O=C(c1ccc(S(=O)(=O)N2CCOCC2)cc1)N(c1cccc(Cl)c1)C1C=CS(=O)(=O)C1 (stereo not given) was read as HSV replic up inactive, INS promoter inh -12, PKD1 inh 4, RGS16-Gao 103, INS promoter inh cell count 123 and HSV replic up primary fold 0.85.
Screening CCOC(=O)C1=C(C)Nc2nc(=S)[nH]n2C1c1ccc(Cl)cc1 (stereo not given) returned GALR2 agonist -1.3, INS promoter inh 37, PKD1 inh 0, RGS16-Gao 103 and INS promoter inh cell count 65.
Screening N/C(Cc1ccc(Cl)cc1Cl)=N\OC(=O)c1ccccc1F returned HSV replic up inactive, INS promoter inh 14, PKD1 inh -6, RGS16-Gao 104, INS promoter inh cell count 86 and HSV replic up primary fold 1.
`O=C(Cn1cc2c(n1)CCCCC2)NCCCN1CCOCC1` gave GALR2 agonist -0.5, HSV replic up inactive, PKD1 inh -4, RGS16-Gao 100 and HSV replic up primary fold 1.3.
For COC(=O)c1ccc(COC(=O)c2nn(C)c(=O)c3ccccc23)cc1 the results were HSV replic up inactive, INS promoter inh 5, PKD1 inh -6, RGS16-Gao 98, INS promoter inh cell count 92 and HSV replic up primary fold 1.
CCN(CC)CCSc1nc(O)c(C(C)C)c(=O)[nH]1 was read as GALR2 agonist 0.6, HSV replic up inactive, INS promoter inh 7, PKD1 inh -2, RGS16-Gao 96, INS promoter inh cell count 121 and HSV replic up primary fold 0.78.
Screening Cc1oc2cc(OCC(=O)O)ccc2c(=O)c1Oc1ccccc1 returned GALR2 agonist -2.1, HSV replic up inactive, INS promoter inh 19, PKD1 inh -1, RGS16-Gao 95, INS promoter inh cell count 89 and HSV replic up primary fold 0.92.
For Cc1cc2c(=O)n(NC(N)=O)c(C)nc2s1 the results were GALR2 agonist -1.2, HSV replic up inactive, INS promoter inh 0, PKD1 inh 2, RGS16-Gao 96, INS promoter inh cell count 127 and HSV replic up primary fold 1.1.
Screening O=C(Nc1cc(C(F)(F)F)ccc1Cl)c1ccncc1 returned HSV replic up inactive, INS promoter inh -122, PKD1 inh -5, RGS16-Gao 99, INS promoter inh cell count 47 and HSV replic up primary fold 1.1.
Screening Cc1nnc(SCC(=O)N2CCN(S(=O)(=O)c3ccccc3)CC2)n1Cc1ccccc1 returned GALR2 agonist -1.9, HSV replic up inactive, PKD1 inh 0, RGS16-Gao 97 and HSV replic up primary fold 0.77.
Screening O=C(C(c1ccccc1)c1ccccc1)N1CCN(Cc2ccncc2)CC1 returned GALR2 agonist -0.8, HSV replic up inactive, PKD1 inh -9, RGS16-Gao 104 and HSV replic up primary fold 0.99.
CCCCOC(=O)CSC1=C(C#N)C(c2ccccc2OC)C(C#N)C(=O)N1 (stereo not given) was read as GALR2 agonist 0.0, HSV replic up inactive, INS promoter inh -31, PKD1 inh 10, RGS16-Gao 104, INS promoter inh cell count 64 and HSV replic up primary fold 0.89.
O=C(Nc1cnn(C23CC4CC(CC(C4)C2)C3)c1)c1cnn2c(C(F)(F)F)cc(-c3ccco3)nc12 was read as GALR2 agonist 0.3, HSV replic up inactive, INS promoter inh 6, PKD1 inh -9, RGS16-Gao 98, INS promoter inh cell count 52 and HSV replic up primary fold 0.94.
For CNc1ccc(C(=O)c2ccccc2C(=O)O)cc1[N+](=O)[O-] the results were HSV replic up inactive, PKD1 inh -3, RGS16-Gao 120 and HSV replic up primary fold 0.81.

Reprinted from the part before: 4 entries, then new ones.
Screening O=C(C(c1ccccc1)c1ccccc1)N1CCN(Cc2ccncc2)CC1 returned GALR2 agonist -0.8, HSV replic up inactive, PKD1 inh -9, RGS16-Gao 104 and HSV replic up primary fold 0.99.
CCCCOC(=O)CSC1=C(C#N)C(c2ccccc2OC)C(C#N)C(=O)N1 (stereo not given) was read as GALR2 agonist 0.0, HSV replic up inactive, INS promoter inh -31, PKD1 inh 10, RGS16-Gao 104, INS promoter inh cell count 64 and HSV replic up primary fold 0.89.
O=C(Nc1cnn(C23CC4CC(CC(C4)C2)C3)c1)c1cnn2c(C(F)(F)F)cc(-c3ccco3)nc12 was read as GALR2 agonist 0.3, HSV replic up inactive, INS promoter inh 6, PKD1 inh -9, RGS16-Gao 98, INS promoter inh cell count 52 and HSV replic up primary fold 0.94.
For CNc1ccc(C(=O)c2ccccc2C(=O)O)cc1[N+](=O)[O-] the results were HSV replic up inactive, PKD1 inh -3, RGS16-Gao 120 and HSV replic up primary fold 0.81.
`Cc1ccccc1C(=O)Nc1ccc2c(C#N)c3nc4ccccc4nc3n2c1` gave GALR2 agonist 0.7, HSV replic up inconclusive, INS promoter inh -22, PKD1 inh -6, RGS16-Gao 102 and INS promoter inh cell count 113.
`COc1ccc(NC(=O)C23CCC(C)(C(=O)O2)C3(C)C)cc1` (stereo not given) gave GALR2 agonist -0.8, HSV replic up inactive, INS promoter inh 47, PKD1 inh 1, RGS16-Gao 99, INS promoter inh cell count 108 and HSV replic up primary fold 0.76.
Screening CCN(CC)S(=O)(=O)c1ccc(C(=O)OCCN2C(=O)c3cccc4c(N5CCOCC5)ccc(c34)C2=O)cc1 returned GALR2 agonist -0.8, HSV replic up inconclusive, INS promoter inh 0, PKD1 inh 10, RGS16-Gao 106 and INS promoter inh cell count 174.
`FC(F)(F)c1cccc(-c2nn[nH]n2)c1` gave HSV replic up inactive, PKD1 inh -3, RGS16-Gao 100 and HSV replic up primary fold 0.95.
`CCCS(=O)(=O)NCCc1cc2ccc(OC)cc2[nH]c1=O` gave GALR2 agonist -1.9, HSV replic up inactive, INS promoter inh 40, PKD1 inh -4, RGS16-Gao 97, INS promoter inh cell count 151 and HSV replic up primary fold 0.92.
Screening CCCCNC(=O)C1CC(=O)N(CCc2ccccc2)C1 (stereo not given) returned HSV replic up inactive, INS promoter inh 0, PKD1 inh -1, RGS16-Gao 97, INS promoter inh cell count 86 and HSV replic up primary fold 1.1.
Screening COc1ccc(/C=N/NC(=O)c2ccn[nH]2)cc1Cn1cc([N+](=O)[O-])cn1 returned HSV replic up inactive, RGS16-Gao 100 and HSV replic up primary fold 0.97.
Screening CC(=O)c1sc(NC(=O)CN2C(=O)CCC2=O)nc1C returned GALR2 agonist -1.8, HSV replic up inactive, INS promoter inh -30, PKD1 inh -6, INS promoter inh cell count 175 and HSV replic up primary fold 0.95.
For O=C(Nc1ccccc1)Nc1c(F)cccc1F the results were HSV replic up inactive, PKD1 inh -6, RGS16-Gao 62 and HSV replic up primary fold 1.1.
CC(NC(=O)Nc1ccc(Cl)cc1)C1CCCO1 (stereo not given) was read as HSV replic up inactive, PKD1 inh 2, RGS16-Gao 97 and HSV replic up primary fold 0.98.
For CS(=O)(=O)N(CC(=O)N1CCN(c2ccc(F)cc2)CC1)c1ccc(F)c(Cl)c1 the results were GALR2 agonist -2.9, HSV replic up inactive, INS promoter inh 0, PKD1 inh 0, RGS16-Gao 103, INS promoter inh cell count 115 and HSV replic up primary fold 0.64.
Screening Cn1c(SCC(=O)N2CCN(c3ccccc3)CC2)nnc1-c1ccccc1 returned GALR2 agonist -3.3, HSV replic up inactive, INS promoter inh -21, PKD1 inh -13, RGS16-Gao 98, INS promoter inh cell count 57 and HSV replic up primary fold 0.89.
`Nc1nnc(SCC(=O)NN2C(=O)NC3(CCCCC3)C2=O)s1` gave GALR2 agonist -1.9, HSV replic up inactive, INS promoter inh -19, PKD1 inh -3, RGS16-Gao 99, INS promoter inh cell count 71 and HSV replic up primary fold 1.1.
`COc1cccc(/C=N/NC(=O)c2ccc(CN3c4cccc5cccc(c45)S3(=O)=O)cc2)c1` gave GALR2 agonist -0.9, HSV replic up inactive, INS promoter inh -38, PKD1 inh -17, RGS16-Gao 100, INS promoter inh cell count 143 and HSV replic up primary fold 0.9.
`CNC(=O)c1nn(-c2ccc(Cl)cc2)ccc1=O` gave GALR2 agonist -1.8, HSV replic up inactive, INS promoter inh 63, PKD1 inh 4, RGS16-Gao 100, INS promoter inh cell count 109 and HSV replic up primary fold 0.96.
For COc1ccc(N2CCN(C3CC(=O)N(Cc4ccccc4)C3=O)CC2)cc1 (stereo not given) the results were HSV replic up inactive, PKD1 inh -2, RGS16-Gao 98 and HSV replic up primary fold 1.
`COc1ccc(/C=N/Nc2nc(N3CCCC3)nc(N3CCCC3)n2)cc1` gave GALR2 agonist -1.3, HSV replic up inactive, INS promoter inh -10, PKD1 inh -6, RGS16-Gao 88, INS promoter inh cell count 50 and HSV replic up primary fold 0.84.
`O=C(c1ccc(Br)cc1)c1cc(-c2ccccn2)c(N2CCOCC2)s1` gave GALR2 agonist -0.6, HSV replic up inactive, INS promoter inh -18, PKD1 inh -3, RGS16-Gao 100, INS promoter inh cell count 112 and HSV replic up primary fold 0.95.
O=[N+]([O-])c1ccc(N/N=C/c2ccc(O)c(O)c2O)c(S(=O)(=O)N2CCOCC2)c1 was read as HSV replic up inactive, PKD1 inh -1, RGS16-Gao 51 and HSV replic up primary fold 1.1.
Screening Cc1nc(-c2ccccc2)cc(N2CCCC2)n1 returned GALR2 agonist -0.4, HSV replic up inactive, INS promoter inh -29, PKD1 inh -10, RGS16-Gao 99, INS promoter inh cell count 191 and HSV replic up primary fold 0.88.
`CCOC(=O)c1cnc(-n2nc(C)cc2C)nc1N(CC)CC` gave GALR2 agonist -1.8, HSV replic up inactive, INS promoter inh 31, PKD1 inh -8, RGS16-Gao 95, INS promoter inh cell count 90 and HSV replic up primary fold 0.85.
Cn1c(=O)c2c(ncn2CC(COCc2ccccc2Cl)OCc2ccccc2Cl)n(C)c1=O (stereo not given) was read as GALR2 agonist -0.7, HSV replic up inactive, INS promoter inh -3, PKD1 inh 0, RGS16-Gao 101, INS promoter inh cell count 110 and HSV replic up primary fold 0.63.
COc1ccc(-n2cc(C(=O)c3ccc4ccccc4c3O)cn2)cc1 was read as HSV replic up inactive, PKD1 inh -1, RGS16-Gao 87 and HSV replic up primary fold 1.1.
Screening COc1ccc(NC(=O)c2ccco2)c(NC(=O)Cc2cccs2)c1 returned GALR2 agonist -2.3, HSV replic up inactive, INS promoter inh -380, PKD1 inh 4, RGS16-Gao 112, INS promoter inh cell count 53 and HSV replic up primary fold 0.87.
Screening O=C(Nc1ccc(Cc2ccncc2)cc1)c1ccc(S(=O)(=O)N2CCCC2)cc1 returned HSV replic up inactive, INS promoter inh -11, PKD1 inh -12, RGS16-Gao 102, INS promoter inh cell count 114 and HSV replic up primary fold 0.97.
`CCOc1ccc(/C(O)=C2/C(=O)C(=O)N(CC3CCCO3)C2c2cccs2)cc1` (stereo not given) gave GALR2 agonist -0.3, HSV replic up inactive, INS promoter inh 27, PKD1 inh -14, RGS16-Gao 104, INS promoter inh cell count 131 and HSV replic up primary fold 0.82.
For c1ccc(C(c2ccccc2)c2noc(CN3CCC(c4ccncc4)CC3)n2)cc1 the results were HSV replic up inactive, PKD1 inh -8, RGS16-Gao 109 and HSV replic up primary fold 1.
For O=C(NN=C1CCCC1)c1ccccc1OCc1ccc(Cl)cc1 the results were HSV replic up inactive, INS promoter inh -33, PKD1 inh -2, RGS16-Gao 102, INS promoter inh cell count 68 and HSV replic up primary fold 0.9.
`CSc1nc2[nH]ncc2c(=O)n1-c1ccccc1` gave GALR2 agonist 0.2, HSV replic up inactive, INS promoter inh -10, PKD1 inh -2, RGS16-Gao 99, INS promoter inh cell count 130 and HSV replic up primary fold 0.98.
For COc1cc(/C=N/NC(=O)CNC(=O)c2ccc3c(c2)OCCO3)ccc1O the results were GALR2 agonist -0.8, HSV replic up inactive, INS promoter inh 0, PKD1 inh 9, RGS16-Gao 103, INS promoter inh cell count 75 and HSV replic up primary fold 1.
`Cc1ccc(S(=O)(=O)NC(=O)Nc2cc(C)ccc2F)cc1` gave GALR2 agonist -0.1, HSV replic up inactive, INS promoter inh -18, PKD1 inh -11, RGS16-Gao 100, INS promoter inh cell count 78 and HSV replic up primary fold 0.93.
CCCCN(CCCC)S(=O)(=O)c1ccc(NS(=O)(=O)c2ccc(NC(C)=O)cc2)cc1 was read as GALR2 agonist -3.1, HSV replic up inactive, INS promoter inh 4, PKD1 inh -3, RGS16-Gao 99, INS promoter inh cell count 125 and HSV replic up primary fold 0.87.
Screening O=C(OCC#Cc1c(COC(=O)c2ccccc2)nnn1Cc1ccccc1)c1ccccc1 returned HSV replic up inactive, RGS16-Gao 103 and HSV replic up primary fold 1.2.
Cc1ccc(/C=N/n2nnnc2N)o1 was read as GALR2 agonist -0.4, HSV replic up inactive, INS promoter inh 14, PKD1 inh -1, RGS16-Gao 100, INS promoter inh cell count 155 and HSV replic up primary fold 0.84.

Bioassay records from PubChem.

Rows were taken by chance; overall some 1.2% were active at least once.
